UUG fidelity = modulators of yeast start codon fidelity, primary screen, whole organism, S. cerevisiae, single point, plate reader; AID 602363, 2012; activity score, % at 18.7 µM; S. cerevisiae UUG-firefly luciferase reporter, luminescence/redox ratio; 350,000 compounds, 0.13% hits;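 active = replicate mean at a twofold rise or more, about +100% in these data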;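 note: firefly luciferase made from a UUG start codon reports start codon fidelity; reporter light over untreated wells divided by growth signal over untreated wells; some hits fall short of that in this replicate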
Env fusion inh = inhibitors of HIV-1 Env-driven cell-cell fusion, primary screen, HeLa-JRFL effector, CEM21 target cells, luciferase; inhibition, % at 12.3 µM; 360,000 compounds, 1.1% hits; AID 651610, 2012;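 active = mean replicate inhibition score of at least 50 and every replicate individually at or above 50; inconclusive = only one of the two criteria met; inactive = mean below 50 and not all replicates reaching 50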;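 note: 0% = plate neutral controls and 100% = maraviroc near 300 nM; one replicate is shown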
An asterisk follows results filed as active; ? = inconclusive; [ ] = another dose, or the depositor's remark. These rows are one share of the data; the hit share may differ from the screen's.

Molecule,UUG fidelity,Env fusion inh
COc1ccc(S(=O)(=O)N(C)C[C@@H]2Oc3ccc(NC(=O)Nc4c(C)noc4C)cc3CC(=O)N([C@H](C)CO)C[C@H]2C)cc1,-2.3,22.7[16.7 µM]
C[C@H]1CCCCO[C@H](CN(C)C(=O)Nc2ccccc2)[C@@H](C)CN([C@@H](C)CO)C(=O)c2cc(NC(=O)Nc3ccc4c(c3)OCO4)ccc2O1,-0.9,15.7[16.7 µM]
Cc1noc(C)c1NC(=O)N[C@H]1CC[C@H](CC(=O)N2CCCCC2)O[C@@H]1CO,-6.8,4.4[16.7 µM]
C[C@H]1CN([C@@H](C)CO)C(=O)c2cccc(NC(=O)C3CCOCC3)c2O[C@@H]1CN(C)Cc1ccccc1,5.2,5.9[16.7 µM]
Cc1noc(C)c1NC(=O)Nc1ccc2c(c1)C(=O)N([C@@H](C)CO)C[C@@H](C)[C@@H](CN(C)C(=O)Nc1ccc3c(c1)OCO3)O2,13.3,0.5[16.7 µM]
O=C(C[C@H]1CC[C@H](NC(=O)Nc2ccc3c(c2)OCO3)[C@@H](CO)O1)NCc1ccccc1,5.5,22.1[16.7 µM]
Cc1noc(C)c1NC(=O)Nc1ccc2c(c1)CC(=O)N([C@@H](C)CO)C[C@@H](C)[C@H](CN(C)C(=O)Nc1ccccc1)O2,-4.2,5.7[16.7 µM]
COc1ccc(CN(C)C[C@@H]2Oc3ccc(NC(=O)Cc4cn(C)c5ccccc45)cc3C(=O)N([C@@H](C)CO)C[C@H]2C)cc1,0.4,-4.0[16.7 µM]
C[C@@H]1CN([C@H](C)CO)C(=O)c2cc(NC(=O)C3CCCCC3)ccc2O[C@H]1CN(C)CC1CCCCC1,-1.2,14.5[16.7 µM]
Cc1noc(C)c1NC(=O)N[C@@H]1CC[C@@H](CCNC(=O)C2CCOCC2)O[C@H]1CO,-6.4,13.7[16.7 µM]
CC(C)C(=O)Nc1ccc2c(c1)C(=O)N(C)[C@H]1CC[C@H](CC(=O)NCc3ccccc3)O[C@@H]1CO2,15.4,-10.2[16.7 µM]
N#C[C@@H]1[C@@H](c2ccc(C#Cc3cccnc3)cc2)[C@@H](CO)N1C(=O)C1CC1,-9.7,-9.7[16.7 µM]
COc1ccc(S(=O)(=O)Nc2ccc3c(c2)C(=O)N([C@@H](C)CO)C[C@@H](C)[C@H](CN(C)C(=O)NC2CCCCC2)OCCCC[C@@H](C)O3)cc1,-6.2,-47.7[16.7 µM]
C[C@@H]1CN([C@H](C)CO)C(=O)Cc2cc(NS(=O)(=O)c3ccc(F)cc3)ccc2O[C@@H]1CN(C)S(=O)(=O)c1cn(C)cn1,-6.6,-33.3[16.7 µM]
C[C@@H]1CN([C@@H](C)CO)C(=O)c2cc(NC(=O)Nc3cccc4ccccc34)ccc2O[C@@H]1CN(C)C(=O)Nc1cccc2ccccc12,11.9,7.4[16.7 µM]
C/C=C/c1cnc2c(c1)C(=O)N([C@@H](C)CO)C[C@H](C)[C@H](CN(C)S(=O)(=O)c1ccccc1)O2,1.3,-8.4[16.7 µM]
C[C@@H]1CN([C@H](C)CO)C(=O)Cc2cc(NS(=O)(=O)c3cccs3)ccc2O[C@H]1CN(C)C(=O)Nc1ccc(F)cc1,5.6,-4.2[16.7 µM]
CC(C)NC(=O)NCC[C@H]1CC[C@H](NC(=O)Nc2ccccc2)[C@@H](CO)O1,-0.8,42.6[16.7 µM]
Cc1noc(C)c1NC(=O)N(C)C[C@H]1OCCCC[C@H](C)Oc2ccc(NC(=O)Nc3ccc4c(c3)OCO4)cc2C(=O)N([C@H](C)CO)C[C@@H]1C,-6.6,-28.5[16.7 µM]
C[C@@H]1CN([C@H](C)CO)C(=O)c2cc(NC(=O)NC3CCCCC3)ccc2O[C@@H](C)CCCCO[C@@H]1CN(C)C(=O)NC1CCCCC1,10.3,8.6[16.7 µM]
O=C(C[C@H]1CC[C@H](NS(=O)(=O)c2ccc(F)cc2)[C@@H](CO)O1)NCCc1ccncc1,-9.5,-8.0[16.7 µM]
Cc1ccc(S(=O)(=O)Nc2ccc3c(c2)C(=O)N([C@H](C)CO)C[C@H](C)[C@H](CN(C)S(=O)(=O)c2cccs2)OCCCC[C@H](C)O3)cc1,-8.7,-14.1[16.7 µM]
C[C@H]1CN([C@@H](C)CO)C(=O)Cc2cc(N(C)C)ccc2O[C@@H]1CN(C)C(=O)Nc1ccc(C(F)(F)F)cc1,15.5,12.8[16.7 µM]
Cc1ccccc1NC(=O)Nc1ccc2c(c1)C(=O)N(C)[C@H]1CC[C@H](CC(=O)O)O[C@@H]1CO2,-5.4,4.0[16.7 µM]
COc1ccc(NC(=O)Nc2cccc3c2O[C@H](CN(C)C(=O)Nc2cccc4ccccc24)[C@@H](C)CN([C@H](C)CO)C3=O)cc1,-4.8,-17.6[16.7 µM]
C[C@H]1CN([C@@H](C)CO)C(=O)c2cccc(NC(=O)C3CCCCC3)c2O[C@H]1CN(C)Cc1ccc(-c2ccccc2)cc1,2.9,13.3[16.7 µM]
CCNC(=O)C[C@@H]1CC[C@H]2[C@@H](COc3ccc(NC(=O)Nc4ccc(C)cc4)cc3C(=O)N2C)O1,12.4,0.9[16.7 µM]
CO[C@@H]1CN(C)C(=O)c2ccc(NC(=O)c3ccccc3)cc2OC[C@@H](C)N(CC2CC2)C[C@@H]1C,0.6,0.3[16.7 µM]
C[C@@H]1CN([C@@H](C)CO)C(=O)Cc2cc(NS(C)(=O)=O)ccc2O[C@H]1CN(C)CC1CC1,-0.5,2.2[16.7 µM]
CC(C)CC#Cc1ccc2c(c1)O[C@@H](CN(C)C(=O)c1ccccc1F)[C@@H](C)CN([C@H](C)CO)S2(=O)=O,-11.0,25.4[16.7 µM]
C[C@@H]1CN([C@H](C)CO)C(=O)c2cc(NC(=O)Nc3ccccc3)ccc2O[C@@H](C)CCCCO[C@H]1CN(C)Cc1ccc2c(c1)OCO2,10.5,17.3[16.7 µM]
C[C@@H]1CCCCO[C@@H](CN(C)CC2CCCCC2)[C@H](C)CN([C@@H](C)CO)C(=O)c2cc(NC(=O)CCCN(C)C)ccc2O1,0.0,8.2[16.7 µM]
Cc1noc(C)c1S(=O)(=O)N(C)C[C@H]1OCCCC[C@@H](C)Oc2ccc(NS(=O)(=O)c3cn(C)cn3)cc2C(=O)N([C@@H](C)CO)C[C@H]1C,10.4,1.9[16.7 µM]
COC(=O)C1=C2CC[C@H](CO)NC(=O)N[C@H](Cc3ccccc3)C(=O)NCc3cn(nn3)C[C@@H](Cc3ccccc3)NC(=O)c3oc(c(C(=O)OC)c3C(=O)OC)CC[C@H](CO)NC(=O)N[C@H](Cc3ccccc3)C(=O)NCc3cn(nn3)C[C@@H](Cc3ccccc3)NC(=O)C(=C1C(=O)OC)O2,62.8,6.2[16.7 µM]
O=C(C[C@@H]1C=C[C@@H](NC(=O)CCN2CCCCC2)[C@@H](CO)O1)Nc1nccs1,-3.7,9.0[16.7 µM]
COc1ccc(NC(=O)Nc2ccc3c(c2)C(=O)N([C@@H](C)CO)C[C@H](C)[C@@H](CN(C)C(=O)Nc2ccc(F)cc2)OCCCC[C@H](C)O3)cc1,-16.1,30.2[16.7 µM]
COc1ccc(NC(=O)N(C)C[C@H]2Oc3c(NC(=O)C4CC4)cccc3C(=O)N([C@@H](C)CO)C[C@@H]2C)cc1,-0.1,-0.1[16.7 µM]
C[C@@H]1CCCCO[C@@H](CN(C)S(=O)(=O)c2ccccc2)[C@@H](C)CN([C@@H](C)CO)C(=O)c2cc(NC(=O)Nc3ccccc3)ccc2O1,-12.7,0.0[16.7 µM]
CS(=O)(=O)Nc1ccc2c(c1)[C@H]1C[C@H](CC(=O)NCc3cccc(F)c3)O[C@H](CO)[C@H]1O2,-9.8,4.4[16.7 µM]
CCO[C@@H]1OC(C(=O)N2CCCCCCC2)=C[C@H](C)[C@H]1CCCO,-8.3,-2.2[16.7 µM]

Shown with values under each structure: 3 of the compounds above
Results follow in this order: UUG fidelity | Env fusion inh
> COc1ccc(S(=O)(=O)Nc2ccc3c(c2)C(=O)N([C@@H](C)CO)C[C@@H](C)[C@H](CN(C)C(=O)NC2CCCCC2)OCCCC[C@@H](C)O3)cc1
    -6.2 | -47.7[16.7 µM]
> C[C@@H]1CN([C@H](C)CO)C(=O)Cc2cc(NS(=O)(=O)c3ccc(F)cc3)ccc2O[C@@H]1CN(C)S(=O)(=O)c1cn(C)cn1
    -6.6 | -33.3[16.7 µM]
> C[C@@H]1CN([C@@H](C)CO)C(=O)c2cc(NC(=O)Nc3cccc4ccccc34)ccc2O[C@@H]1CN(C)C(=O)Nc1cccc2ccccc12
    11.9 | 7.4[16.7 µM]

(listing goes on)
Molecule,UUG fidelity,Env fusion inh
CC(C)NC(=O)Nc1ccc2c(c1)CC(=O)N([C@@H](C)CO)C[C@@H](C)[C@H](CN(C)Cc1ccccc1)O2,8.9,-10.4[16.7 µM]
C[C@@H]1CN([C@H](C)CO)C(=O)c2cc(Br)cnc2O[C@H]1CN(C)C(=O)c1cccnc1,-10.5,-0.1[16.7 µM]
CCc1csc(N2[C@@H](C#N)[C@@H](c3ccc(-c4cccc(F)c4)cc3)[C@@H]2CO)n1,-15.4,10.7[16.7 µM]
C[C@@H]1CN([C@@H](C)CO)S(=O)(=O)c2ccc(C#CC3CC3)cc2O[C@H]1CN(C)C(=O)CN(C)C,15.8,40.1[16.7 µM]
C[C@H](CO)N1C[C@H](C)[C@@H](CN(C)Cc2ccc(Cl)c(Cl)c2)Oc2ccc(NC(=O)Nc3ccc(F)cc3)cc2C1=O,-0.9,31.3[16.7 µM]
CC(C)C#Cc1cnc2c(c1)C(=O)N([C@H](C)CO)C[C@H](C)[C@H](CN(C)C(=O)Nc1ccc(F)cc1)O2,15.2,3.6[16.7 µM]
O=C(C[C@H]1CC[C@@H](NC(=O)C2CC2)[C@H](CO)O1)NC1CCC1,-9.7,6.9[16.7 µM]
O=C(C[C@H]1CC[C@H]2NC[C@@H](O)COC[C@@H]2O1)NC1Cc2ccccc2C1,-10.2,-9.0[16.7 µM]
C[C@@H]1CCCCO[C@@H](CN(C)S(=O)(=O)c2ccc(Cl)cc2)[C@@H](C)CN([C@@H](C)CO)C(=O)c2cc(NC(=O)c3ccccc3)ccc2O1,-9.9,12.8[16.7 µM]
C[C@@H]1CN([C@H](C)CO)C(=O)c2cc(NC(=O)Nc3ccccc3)ccc2O[C@@H]1CN(C)Cc1ccc(-c2ccccc2)cc1,5.6,29.1[16.7 µM]
CNC[C@@H]1Oc2c(NC(=O)Nc3ccc(OC)cc3)cccc2C(=O)N([C@H](C)CO)C[C@H]1C,-0.1,14.1[16.7 µM]
C[C@H](CO)N1C[C@H](C)[C@H](CN(C)C(=O)NC2CCCCC2)OCCCC[C@H](C)Oc2ccc(NC(=O)Nc3ccc(C(F)(F)F)cc3)cc2C1=O,-9.2,-9.4[16.7 µM]
CCC(=O)N1C[C@H](C)[C@H](OC)CN(C)C(=O)c2ccc(NC(=O)COC)cc2OC[C@@H]1C,-8.3,13.7[16.7 µM]
COc1ccc(S(=O)(=O)Nc2ccc3c(c2)CC(=O)N([C@H](C)CO)C[C@H](C)[C@H](CN(C)S(=O)(=O)c2ccc(Cl)cc2)O3)cc1,6.2,72.8*[16.7 µM]
C[C@@H]1CN([C@@H](C)CO)S(=O)(=O)c2ccc(-c3cccc(C#N)c3)cc2O[C@@H]1CN(C)C(=O)Nc1ccccc1F,-10.7,-72.8[16.7 µM]
C/C=C/c1cnc2c(c1)C(=O)N([C@H](C)CO)C[C@H](C)[C@H](CN(C)S(=O)(=O)c1ccccc1)O2,-4.2,-18.2[16.7 µM]
COCC#Cc1ccc2c(c1)O[C@@H](CN(C)S(=O)(=O)c1ccc(C)cc1)[C@H](C)CN([C@H](C)CO)S2(=O)=O,-1.0,8.5[16.7 µM]
C=CCOC(=O)[C@@H]1[C@H]2C(=O)O[C@H](c3ccccc3)[C@H](c3ccccc3)N2[C@H](c2ccc(OCCOC(=O)[C@@H]3C[C@@H]4C(=O)N[C@@H](CC(C)C)C(=O)N4[C@@H]3c3ccc(O)cc3)cc2)[C@@]12C(=O)Nc1ccc(I)cc12,-23.8,-0.4[16.7 µM]
C[C@@H]1CCCCO[C@@H](CN(C)C(=O)NC2CCCCC2)[C@@H](C)CN([C@@H](C)CO)C(=O)c2cc(NC(=O)Nc3ccc(C(F)(F)F)cc3)ccc2O1,-5.6,-4.9[16.7 µM]
CNC[C@H]1Oc2ncc(C#CC3CCCC3)cc2C(=O)N([C@@H](C)CO)C[C@H]1C,11.6,5.5[16.7 µM]
O=C(C[C@H]1CC[C@@H](NC(=O)Nc2ccc(F)cc2)[C@@H](CO)O1)NCc1cccc(F)c1,-0.2,-1.8[16.7 µM]
CC(C)NC(=O)NCC[C@@H]1CC[C@@H](NC(=O)Nc2ccccc2)[C@@H](CO)O1,10.9,-3.2[16.7 µM]
C/C=C/c1cnc2c(c1)C(=O)N([C@@H](C)CO)C[C@H](C)[C@H](CN(C)C(=O)Nc1ccc(OC)cc1)O2,-1.3,8.3[16.7 µM]
C[C@H](CO)N1C[C@H](C)[C@H](CN(C)S(=O)(=O)c2cn(C)cn2)Oc2ccc(NS(=O)(=O)c3cccs3)cc2CC1=O,-14.1,-9.7[16.7 µM]
C[C@@H]1CCCCO[C@H](CN(C)C(=O)Nc2ccc(C(F)(F)F)cc2)[C@H](C)CN([C@@H](C)CO)C(=O)c2cc(NC(=O)CCC(F)(F)F)ccc2O1,-14.7,?
CC(C)NC(=O)N(C)C[C@H]1Oc2cc(C3=CCCC3)ccc2S(=O)(=O)N([C@@H](C)CO)C[C@H]1C,-5.0,34.0[16.7 µM]

Bioassay records from PubChem BioAssay.
